A647 autofl = qHTS Assay for Spectroscopic Profiling in A647 Spectral Region. 59,000 tested, under 10 active. max dye-equivalent concentration, M. Compound fluorescence, A647 channel (570/671 nm), Tris buffer; active means above 1 µM dye equivalent; inconclusive means 0.1 to 1 µM; inactive means 0.1 µM or less;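 note: values scaled relative to a standard on each plate; highest value over a series up to 38 µM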
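Each compound's intrinsic fluorescence at 570 nm excitation and 671 nm emission is measured across its concentration series in 100 mM Tris, pH 8.0, after 15 min at room temperature, and reported relative to an A647 curve.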
AID923 = qHTS Assay for Allosteric/Competitive Inhibitors of Caspase-1: Spectroscopic Profiling in AFC Spectral Region | 75,000 compounds, 1.1% hits | compound fluorescence, AFC spectral region (405/520 nm); almost no hit is shown here | Potency, µM (titrated, usually from 57.5 µM), for the others: top-dose fluorescence increase, hits mostly activators; active = well fitted activation curve with a large enough effect; inconclusive = small, poorly fitted or top-dose-only effect;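 note: potency is the fitted concentration of half-maximal effect; 0% is about no effect; scaled to a free AFC standard on each plate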
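Baseline compound fluorescence (AFC region, 405 nm ex/520 nm em) taken from the intercept of kinetic reads with 50 nM caspase-1 and 5 uM Ac-WEHD-AFC; normalized to an on-plate AFC standard curve; compounds titrated up to 57 uM.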
A488 autofl = qHTS Assay for Spectroscopic Profiling in A488 Spectral Region; compound autofluorescence, A488 spectral region, dye equivalency; active compounds read high; max dye equivalency, M; 59,000 compounds, 0.1% hits; active = above 10 nM dye equivalent; inconclusive = 1 to 10 nM; inactive = 1 nM or less; about half of its hits are not listed in these tables;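 note: highest value over a series up to 38 µM; compound alone in buffer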
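Readout is A488 dye-equivalent concentration, calibrated by a per-plate six-point Alexa 488 series. Compounds in 100 mM Tris buffer pH 8.0 were incubated 15 min at room temperature. Plates were imaged using 480 nm excitation/540 nm emission filters.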
Resorufin fluor = qHTS Assay for Spectroscopic Profiling in Resorufin Spectral Region | Compound fluorescence, resorufin region 547/598 nm, buffer; active compounds read high | max dye-equivalent concentration, M | 59,000 compounds, 0.04% hits; active = above 10 nM dye equivalent; inconclusive = 1 to 10 nM; inactive = 1 nM or less; a few of its hits are not listed in these tables; note: highest value over a series up to 38 µM
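Read-out: intrinsic compound fluorescence at ex 547/em 598 nm after 15 min at RT in pH 8.0 Tris (100 mM). Values expressed as resorufin-equivalent concentration from per-plate standard series.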
TSHR ag = qHTS Assay for Agonists of the Thyroid Stimulating Hormone Receptor | HEK293-CNG-TSHR cells (CNG channel as cAMP sensor), membrane potential dye, cAMP | Thyrotropin receptor (Homo sapiens), P16473 | Potency, µM (titrated, usually from 57.1 µM), without a hit: top-dose activation, actives largely listed as activators | 73,000 compounds, 0.48% hits | AID 926, 2007; active = well fitted activation curve of enough size with the parental cells flat; inconclusive = any curve in the parental cells; inactive = parental cells flat and receptor cells flat or falling; note: potency is the fitted concentration of half-maximal effect; % of control where 0% means no effect; weak receptor curves with flat parental cells got no call and are not listed
Target sequence (P16473 whole entry, looked up): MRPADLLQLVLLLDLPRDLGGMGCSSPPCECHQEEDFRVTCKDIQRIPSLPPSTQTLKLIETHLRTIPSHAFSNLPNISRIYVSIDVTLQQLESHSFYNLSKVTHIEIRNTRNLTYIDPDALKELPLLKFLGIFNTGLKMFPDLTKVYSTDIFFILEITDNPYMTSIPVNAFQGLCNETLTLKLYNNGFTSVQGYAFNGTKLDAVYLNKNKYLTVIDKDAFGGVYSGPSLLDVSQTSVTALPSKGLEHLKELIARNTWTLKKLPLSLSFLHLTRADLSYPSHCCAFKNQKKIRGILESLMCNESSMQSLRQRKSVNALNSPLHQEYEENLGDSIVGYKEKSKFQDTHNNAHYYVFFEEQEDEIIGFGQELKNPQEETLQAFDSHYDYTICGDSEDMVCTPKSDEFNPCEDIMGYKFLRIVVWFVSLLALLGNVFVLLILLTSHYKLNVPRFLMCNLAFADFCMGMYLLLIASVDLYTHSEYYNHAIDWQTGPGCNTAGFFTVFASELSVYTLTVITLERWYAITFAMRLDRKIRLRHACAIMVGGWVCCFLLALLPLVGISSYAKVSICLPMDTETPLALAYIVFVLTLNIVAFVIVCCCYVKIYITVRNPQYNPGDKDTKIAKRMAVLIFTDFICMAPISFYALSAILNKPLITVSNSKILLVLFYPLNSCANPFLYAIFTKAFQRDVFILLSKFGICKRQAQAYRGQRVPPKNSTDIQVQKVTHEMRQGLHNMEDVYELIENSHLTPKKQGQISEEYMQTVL
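HEK 293 cells stably expressing TSHR and a cAMP-gated CNG channel; parental CNG-only cells as counterscreen. Cells preloaded 60 min with membrane potential dye plus 100 uM RO 20-1724, then compound 30 min; fluorescence read at 590 nm.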
Numbers without * were called inactive; i = inactive; u = inconclusive; x = not tested or not shown; & = joins results of further samples; [ ] = another dose, or the depositor's remark.

smiles	A647 autofl	AID923	A488 autofl	Resorufin fluor	TSHR ag
CCCCCOc1ccc(C(=O)NC(CCC)C(=O)O)cc1 (stereo not drawn)	4.3e-08	-1.5%	i	i	u
Cc1cc(Nc2cccc(F)c2)nc(-c2ccccc2O)n1	2.8e-08	11%	i	i	u
O=c1c2cccnc2[nH]c(=S)n1CCCN1CCN(c2ccccc2F)CC1	1e-09	-0.6%	i	i	u
O=C(O)Cn1c(=O)oc2cc(S(=O)(=O)N3CCOCC3)ccc21	x	0.9%	x	x	2%
CCc1ccc(CCC(=O)Nc2nnc(C)s2)o1	2.7e-09	0.7%	i	i	19%
O=C(COc1ccc(Cl)cc1)NCCCn1ccnc1	x	1.8%	x	x	-4%
Cc1[nH]nc2ncc(C(=O)c3ccccc3O)cc12	1.3e-08	6.2%	i	i	1%
c1ccc2c(CNn3cnnc3)cccc2c1	5.3e-09	-1.1%	i	i	3%
O=C1c2ccccc2C(=O)N1c1ccc(-c2nc3ccccc3o2)cc1	x	-0.7%	x	x	-7%
O=c1[nH]c2ccc(S(=O)(=O)NCc3ccccn3)cc2s1	1.4e-09	2.2%	i	i	-3%
CCN1CCN(C(=O)Nc2cccc3ccccc23)CC1	x	-0.5%	x	x	4%
O=C(NCc1ccc(F)cc1)C1C2C=CC3(CN(Cc4cccnc4)C(=O)C13)O2 (stereo not drawn)	1e-09	-1.1%	i	i	4%
CCOc1cc(-c2nc(-c3ccc(C)nc3OCC)no2)cc(OCC)c1OCC	1.1e-09	-1.1%	i	i	-2%
CCOC(=O)N1CCC(N2CCN(c3cc(C)ccc3C)CC2)CC1	x	-1.2%	x	x	9%[11.4 µM]
Cn1c(=O)c2cc(S(=O)(=O)N3CCOCC3)ccc2n(C)c1=O	6.6e-08	-0.8%	i	i	5%
C[N@@+]1(CC[N@@+]2(C)CCC[C@H]2c2cccnc2)CCC[C@@H]1c1cccnc1	2.5e-09	0.0%[11.5 µM]	i	i	3%[11.4 µM]
Oc1ccc(-c2[nH]ncc2-c2ccc(Cl)cc2)c(O)c1	1.3e-08	-1.2%	i	i	-9%[11.4 µM]
N#CCOc1nc(N2CCOCC2)nc(N2CCOCC2)n1	3.5e-08	-4.1%	i	i	-3%
CC(C)c1nc2n[nH]c(N)c2c2c1CCCC2	7.2e-08	x	i	i	x
CC(=O)NCCc1ccc(S(=O)(=O)N2CCOCC2)cc1	1.5e-08	-0.9%	i	i	3%
COc1ccc(S(=O)(=O)N2CCSC2c2ccc(OC)c(OC)c2)cc1 (stereo not drawn)	9.7e-09	0.3%	i	i	25%
CCCc1cc(C(=O)Nc2cccnc2)no1	x	1.1%	x	x	-4%
CC1(C)CNC(=O)c2sc(N3CCCCC3)nc2C1	1e-09	0.4%	i	i	u
O=C(COc1ccc(-c2nnco2)cc1)N1CCN(S(=O)(=O)c2ccccc2)CC1	5.1e-08	-1.2%	i	i	-4%
COc1ccc(OC)c(C2/C(=C(\O)c3ccc(OC)c(Cl)c3)C(=O)C(=O)N2CCN(C)C)c1 (stereo not drawn)	3.5e-08	x	i	i	x
CCCCOCCCNC(=O)Cc1cccs1	x	-1.3%	x	x	u
COc1ccc(C(=O)NCCn2cc(SCC(=O)N3CCOCC3)c3ccccc32)cc1	5.1e-09	0.2%	i	i	-3%
FC(F)(F)c1cccc(N2CCN(Cc3cccnc3)CC2)c1	x	1.2%	x	x	9%
COC(=O)C1=C(C)N(Cc2ccccc2)[C@]23O[C@](C(=O)OC)(C(=O)N2C1c1ccccc1)C1C(=O)N(C)C(=O)C13 (stereo partly drawn)	x	1.7%&-0.5%[11.5 µM]	x	x	1%&7%[11.4 µM]
CC(=O)c1cc(Cl)ccc1OC(=O)c1ccco1	x	-0.2%	x	x	28%
COC(=O)c1ccc(C(NC(=O)OCc2ccccc2)/C(=C/[C@@H](C)C(=O)N(C)Cc2cccnc2)c2cccnc2)cc1 (stereo partly drawn)	x	-1.5%	x	x	6%
COC(=O)NC1CCS(=O)(=O)C1 (stereo not drawn)	3.8e-08	-0.8%	i	i	0%
COc1ccccc1NC(=O)C1=C(C)Nc2nc(CCCO)nn2C1c1ccc2c(c1)OCO2 (stereo not drawn)	2.9e-09	1.1%	i	i	-4%
C[C@](N)(COP(=O)(O)O)C(=O)O	x	-0.4%	x	x	12%
CCOc1ccccc1C1C(C#N)=C(SCC(=O)OC)NC(=O)C1C(=O)OC (stereo not drawn)	1.3e-08	0.5%	i	i	-10%
Cc1cnc(CNc2nc(-c3ccc(N(C)C)cc3)nc3ccccc23)cn1	5.6e-09	4.3%	i	i	u
CC(=O)Nc1nnc(C)s1	x	0.7%	x	x	2%
CCCCCCCCCCCCCCCCCC(=O)NC[C@@H](COP(=O)([O-])OCC[N+](C)(C)C)OCC	1.2e-08	-1.4%	i	i	27%
OC(CNCc1ccco1)COc1ccccc1 (stereo not drawn)	x	2.8%	x	x	7%
CCOCCN(C(=O)COC)c1cccc(OC)c1	4.3e-09	x	i	i	x
C[C@@H]1CC2(OC(O)[C@]3(C)O[C@H]23)O[C@H]2C[C@@]3(C)[C@@H]4CC[C@H]5C(C)(C)C(O[C@@H]6OC[C@@H](O)[C@H](O)[C@H]6O)CC[C@@]56C[C@@]46CC[C@]3(C)[C@@H]12 (stereo partly drawn)	x	-0.9%	x	x	u
O=c1[nH]c2[nH]c(=S)[nH]c(=S)c2[nH]1	1e-09	3.0%[11.5 µM]	i	i	1%[11.4 µM]
Cc1cc(NC(=O)c2cccc(S(=O)(=O)N3CCCC3)c2)no1	1e-09	0.3%	i	i	19%
CS(=O)(=O)c1ccc(/C=N\NC(N)=S)cc1	1e-09	0.3%[11.5 µM]	i	i	1%[11.4 µM]
O[C@H](c1cc(C(F)(F)F)nc2c(C(F)(F)F)cccc12)[C@H]1CCCCN1	3.1e-09	0.7%[25.7 µM]	i	i	u
COc1ccc(N(CC(=O)N2CCc3ccccc32)S(=O)(=O)c2c(C)n[nH]c2C)cc1	2.2e-08	0.3%	i	i	-8%
Fc1ccccc1C(c1nnnn1Cc1ccc2c(c1)OCO2)N1CCN(Cc2ccco2)CC1 (stereo not drawn)	1e-09	-1.5%	i	i	u
Cc1[nH]c(=O)[nH]c(=O)c1S(=O)(=O)NCC12CC3CC(CC(C3)C1)C2	3.7e-08	-1.3%	i	i	-3%[11.4 µM]
COc1cccc(-c2cc(C(=O)N3CCCCC3C)no2)c1 (stereo not drawn)	1.9e-08	-0.5%	i	i	u
COc1cccc2cc(C(=O)C3=C(O)C(=O)N(CCCN(C)C)C3c3ccncc3)oc12 (stereo not drawn)	1e-09	-1.4%	i	i	-3%

(cont.)
smiles	A647 autofl	AID923	A488 autofl	Resorufin fluor	TSHR ag
O=C(O)CSSCC(=O)O	3.7e-08	2.1%[11.5 µM]	i	i	9%[11.4 µM]
CCOC(=O)C1=C(O)C(=O)N(c2ccc(S(N)(=O)=O)cc2)C1c1ccc(OC)cc1 (stereo not drawn)	1e-09	-0.9%	i	i	x
Cc1cccc(N(C)C(=O)CCS(=O)(=O)c2cccc3nonc23)c1	3.6e-09	0.1%	i	i	-3%
C[C@@H](CC(=O)O)[C@@H](N)C(=O)O	x	1.2%	x	x	5%
CCOc1ccc(-n2c(Cc3cc(=O)[nH]c(=O)[nH]3)nnc2SCC)cc1	4.5e-08	0.6%	i	i	0%
CCCCN(CCCC)S(=O)(=O)c1ccc(OC)c2ncccc12	1.1e-09	-0.6%	i	i	u
O=C1CC(c2ccccc2)n2nc(NC(=O)c3ccccn3)nc2N1 (stereo not drawn)	3.9e-08	-2.3%	i	i	1%
N=c1n(-c2ccccc2)c(O)cc(=O)n1-c1ccccc1	x	1.8%	x	x	2%
Cn1c(=O)c2c(SCc3cccc(C(F)(F)F)c3)nc(-c3ccco3)nc2n(C)c1=O	1e-09	-0.7%	i	i	x
CN1CCN(C(=O)c2ccc(CN3CCOCC3)cc2)CC1	x	-1.4%	x	x	2%
COc1ccc(Cc2nnc(Nc3ccc(C)cc3C)[nH]c2=O)cc1	8.4e-09	0.8%	i	i	u
c1ccc(-c2noc(-c3cccc4ccccc34)n2)nc1	1e-09	3.1%	i	i	28%
O=C(CSc1nnc(-c2cccc(S(=O)(=O)N3CCCCC3)c2)o1)c1ccc[nH]1	1e-08	1.9%	i	i	-8%
CCOc1ccccc1Nc1ncccc1C(=O)N1CCCC1	1.5e-08	-1.2%	i	i	u
Cc1c(NC(=O)C2(c3ccccc3)CCOCC2)c(=O)n(-c2ccccc2)n1C	1e-09	0.8%	i	i	1%
Nc1ccccc1NC(=O)c1ccccc1N	7.4e-09	2.5%	i	i	-1%
O=C(O)CSc1nnc(CNc2cccc(C(F)(F)F)c2)n1Cc1ccco1	4.1e-09	1.4%	i	i	5%
O=C(O)c1ccc(C(=O)c2ccccc2)c(C(=O)O)c1	8.9e-09	1.5%[11.5 µM]	i	i	-1%[11.4 µM]
COc1ccc(N2CCN(C(=O)c3cc4c(-c5cccc(OC)c5)nn(C)c4s3)CC2)cc1	1.6e-09	0.9%	i	i	7%
CCc1ccccc1NC(=O)CN1CCC(NC(=O)COC)CC1	1e-09	-3.0%	i	i	11%
COc1cccc(-c2nc(NCc3cccnc3)c3ccccc3n2)c1	1.3e-08	0.6%	i	i	32µM*
COc1ccc(NC(=O)c2ccc(N(C)S(C)(=O)=O)cc2)cc1OC	3e-09	0.8%	i	i	1%
CCCC[C@@H]1C[C@H]1C(NC(=O)c1ccccc1)c1ccccc1C(F)(F)F (stereo partly drawn)	x	1.7%	x	x	u
CCOC(=O)c1c(NC(=O)CSc2nnnn2C)sc(C)c1-c1ccc(C)cc1	6.6e-09	1.0%	i	i	12%
O=C(CSc1nnc(-c2ccccc2)o1)N1CCc2ccccc2C1	1e-09	-2.3%	i	i	x
CC(=O)N=c1ncn(CC(COC(C)=O)OC(C)=O)c2nc[nH]c12 (stereo not drawn)	1e-09	-1.3%	i	i	-7%
CN(CCNC(=O)CCNC(=O)Cn1ccc2ccccc2c1=O)Cc1ccccc1	5.6e-09	-0.3%	i	i	3%[11.4 µM]
O=C(Nc1cccc(F)c1)NC1CCCCC1	4.9e-09	-2.6%	i	i	11%
CCOC(=O)N1CCN(C(=O)CSCC(=O)Nc2nc(-c3cccs3)cs2)CC1	1e-09	2.2%	i	i	u
Cc1cc(Cl)ccc1OCC(=O)NCCCN1CCOCC1	3.1e-08	-1.2%	i	i	-4%
Cc1cc2ccccc2n1CCNC(=O)c1cccs1	x	2.8%	x	x	u
COC(=O)C/C=C1\c2ccccc2C(OC)C1C (stereo not drawn)	x	-3.2%[11.5 µM]	x	x	3%[11.4 µM]
CCCc1nnc(SCC(=O)N2CCOCC2)n1Cc1ccco1	1e-09	-0.1%	i	i	1%
COc1cccc(C=NC=Nc2cccc(OC)c2)c1	x	-2.0%	x	x	23%

Reprinted from above for reference:
smiles	A647 autofl	AID923	A488 autofl	Resorufin fluor	TSHR ag
Cc1cc2ccccc2n1CCNC(=O)c1cccs1	x	2.8%	x	x	u
COC(=O)C/C=C1\c2ccccc2C(OC)C1C (stereo not drawn)	x	-3.2%[11.5 µM]	x	x	3%[11.4 µM]

Assay outcomes as filed in PubChem.

A portion of the library; rates above refer to the full screens.
